# Bioassay records as filed in PubChem BioAssay.
# HPGD inh – qHTS Assay for Inhibitors of HPGD (15-Hydroxyprostaglandin Dehydrogenase). 15-hydroxyprostaglandin dehydrogenase [NAD(+)] (Homo sapiens), P15428. purified HPGD, NADH fluorescence kinetic, PGE2 substrate. 150,000 tested, 4.3% active. Potency, µM, without a hit: at the top dose activity change, negative = inhibition, hits mostly inhibitors; active = well fitted inhibition curve with a large enough effect (not every such curve was filed as active); inconclusive = small, poorly fitted or top-dose-only effect, or another doubt; inactive = no such curve, though single readings can be large or run the other way;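 note: top concentration of the series not given in the record; plate controls included wells without enzyme; inactives centre near -10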
# Target sequence (P15428 whole entry, looked up): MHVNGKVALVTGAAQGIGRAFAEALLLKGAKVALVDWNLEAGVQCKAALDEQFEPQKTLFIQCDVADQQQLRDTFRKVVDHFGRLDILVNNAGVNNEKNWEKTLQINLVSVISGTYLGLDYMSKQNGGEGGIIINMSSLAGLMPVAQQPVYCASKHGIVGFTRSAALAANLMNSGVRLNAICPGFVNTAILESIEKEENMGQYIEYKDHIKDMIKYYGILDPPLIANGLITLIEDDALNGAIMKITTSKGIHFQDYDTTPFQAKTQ
#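 20 nM HPGD preincubated 15 min at room temperature with compound in 50 mM Tris-HCl pH 8, 0.01% Tween 20. Started with 1 mM NAD+ and 30 uM prostaglandin E2; NADH fluorescence (360/450 nm) read 5 times over 30-s intervals, last minus first.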
# Active calls of the source: *; ? = inconclusive. % is set by controls: 0 for no effect and ±100 for the full control effect; potency is the fitted concentration of half-maximal effect. Not all compounds are listed. The share of hits here may be higher or lower than overall.
HPGD inh | compound
-9% | COc1ccc(CNC(=O)Cn2nnc(-c3ccc(NC(=O)C4CCCCC4)cc3)n2)cc1
-10% | Cn1c(CNC(=O)c2ccc(F)cc2)nc2ccccc21
28µM* | COCc1nnc(NC(=O)CSc2ccc(C)cc2)s1
? | O=S(=O)(Nc1c(S(=O)(=O)c2ccccc2)c2nc3ccccc3nc2n1C1CCCCC1)c1ccccc1
-9% | O=C(NCCc1cccc(F)c1)/C(=C/c1cccnc1)NC(=O)c1ccccc1
14µM* | COc1cc(/C=N/Nc2ncc(C(F)(F)F)cc2Cl)cc(OC)c1O
-7% | CC(C)=C[C@H]1[C@@H](COC(=O)c2ccccc2Cl)C1(C)C
-2% | Cc1c(NCc2nc3ccccc3[nH]2)c(=O)n(-c2ccccc2)n1C
13µM* | O=C(/C=C/c1c(F)cccc1Cl)c1ccc(F)cc1
-15% | CN1C(=O)CC(N2CCN(CC(N)=O)CC2)C1=O (configuration not stated)
-26% | CCOc1ccc(-c2nc(N)ncc2Oc2ccccc2Br)c(O)c1
-6% | CCOc1ccc(N2C(=O)c3cccnc3C2Nc2ccc(C)c(C)c2)cc1 (configuration not stated)
-6% | COc1cc(CNCCc2c[nH]c3ccccc23)ccc1OCc1ccc(F)cc1
-11% | Cc1ccc(Cl)c(OCC(=O)OCC(=O)NC2CCCc3ccccc32)c1 (configuration not stated)
-4% | CC(OC(=O)Cc1c(F)cccc1Cl)C(=O)NCCC1=CCCCC1 (configuration not stated)
25µM* | COCCn1c(C23CC4CC(CC(C4)C2)C3)n[nH]c1=S
-11% | Cc1noc(C)c1S(=O)(=O)NCCCN1CCN(Cc2ccccc2)CC1
-24% | O=C(NCc1ccco1)c1ccc2c(=O)n(CCC3=CCCCC3)c(=O)[nH]c2c1
-7% | Cc1ccnc(NC(=O)CCC(=O)N(CC(=O)NCCc2ccccc2)Cc2ccco2)c1
-28% | Cc1ccc(/C=N/NC(=O)C(NC(=O)c2ccccc2)c2n[nH]c(=O)c3ccccc23)cc1 (configuration not stated)
-1% | CCOC(=O)Nc1sc(NS(=O)(=O)c2ccccc2)nc1C
-6% | Cc1cc(Oc2ccccc2)nc(OCC#N)n1
-15% | COc1ccc(C(c2c(O)nc(SC)n(C)c2=O)c2c(O)nc(SC)n(C)c2=O)cc1O
-17% | CCCCCn1c(N(C)Cc2ccccc2)nc2c1c(=O)[nH]c(=O)n2C
-5% | Cc1ccc(-c2nc(NC(=O)c3nn(C)cc3[N+](=O)[O-])sc2C)cc1C
? | O=C1c2ccccc2NC(c2ccccn2)N1c1ccc(Cl)cc1 (configuration not stated)
-1% | CCCCNc1nc2ccccc2n1CC(=O)N1CCc2ccccc2C1
0.56µM* | Oc1cccc2ccc(SSc3ccc4cccc(O)c4n3)nc12
-4% | CC(C)(C)NC(=O)CN(C(=O)CS(=O)CC(=O)Nc1ccc(F)cc1)c1ccc(Cl)cc1 (configuration not stated)
-16% | CS(=O)(=O)Nc1ccc(C(=O)N2CCN(c3ccccc3F)CC2)cc1
-2% | CSc1nc(-c2ccc(F)cc2)cc(=O)[nH]1
-21% | COc1cccc2sc(NNC(=O)c3nc4ccccc4s3)nc12
-19% | CCOC(=O)N1CCC(N2C(=O)c3ccccc3C2Nc2c(C)cccc2C)CC1 (configuration not stated)
0% | COc1ccc(NC(=O)CN(Cc2ccccc2)S(C)(=O)=O)cc1OC
-3% | Cc1cccc(NC(=S)N(CCN(C)C)C(C)c2ccccn2)c1 (configuration not stated)
-10% | CSCc1nnc(NC(=O)c2ccc(S(=O)(=O)N(CC(C)C)CC(C)C)cc2)o1
2% | CCc1ccccc1NS(=O)(=O)c1ccc2c(c1)NC(=O)CC(=O)N2
4% | COc1ccccc1N1CCN(C(=O)CSc2nc(C)cc(=O)[nH]2)CC1
-17% | CCn1cc(C(=O)NC2CCCCC2)c(=O)c2cc(S(=O)(=O)N(C)C)ccc21
-6% | CN(C)CCc1c[nH]c2ccc(Cn3cncn3)cc12
-8% | CC1=C(C(=O)OCC2CCCO2)C(c2ccc(C)o2)C2=C(CC(c3ccc(N(C)C)cc3)CC2=O)N1 (configuration not stated)
-6% | COC(=O)[C@@]1(Cc2ccc(OC)cc2)[C@H]2c3cc(C(=O)N(C)C)n(Cc4ccccn4)c3C[C@H]2CN1C(=O)c1ccccc1
-8% | CCc1nc(SC)[nH]c(=O)c1C
? | COc1cc2cc(C(=O)O)[nH]c2c(OC)c1OC
-9% | COc1cc(C(=O)N(Cc2cccc(Cl)c2)C2CCS(=O)(=O)C2)cc(OC)c1OC (configuration not stated)
-10% | COc1ccccc1C1(O)CCN(C(=O)c2cccs2)CC1
-17% | COc1ccc(-c2nc(CCNC(=O)c3cccs3)cs2)cc1
-2% | CC1CC(OCC(O)CN2CCOCC2)CC(C)(C)C1 (configuration not stated)
-1% | CC(/C=N/NC(=O)CN1CCN(Cc2ccc(Cl)cc2)CC1)=C\c1ccco1
-7% | COCCn1nnnc1CN1CCC(C)CC1
-7% | CCN(CC)S(=O)(=O)c1ccc(C(=O)OCn2c(SC)nnc(C)c2=O)cc1
-16% | CC(C)c1ccc(-c2nnn(Cc3nc4ccccc4s3)n2)cc1
-7% | COCCOC(=O)c1c(C)oc2cc(Br)c(OCC(N)=O)cc12
-8% | Cc1nc2ccccc2c2c1C(=O)N(C(C)C)C2=O
1% | Cc1cc(C)cc(NC(=O)C(c2ccccc2)N2CCCC2)c1 (configuration not stated)
-26% | O=c1[nH]c(-c2ccc(F)cc2)nc2c1sc(=S)n2-c1ccccc1
-2% | O=C(Nc1cccnc1)c1ccc(Oc2ccccc2)cc1
-8% | COc1ccc(C(=O)N2CCC[C@@]3(CCN(C(=O)NC(C)C)C3)C2)cc1
-14% | Cc1ncc([N+](=O)[O-])n1CCOC(=O)c1ccccc1
-10% | O=C(Nc1nc(-c2ccccn2)cs1)C1COc2ccccc2O1 (configuration not stated)

# Four of the entries above in order of the HPGD inh value, low to high.
HPGD inh | compound
0.56µM* | Oc1cccc2ccc(SSc3ccc4cccc(O)c4n3)nc12
13µM* | O=C(/C=C/c1c(F)cccc1Cl)c1ccc(F)cc1
25µM* | COCCn1c(C23CC4CC(CC(C4)C2)C3)n[nH]c1=S
28µM* | COCc1nnc(NC(=O)CSc2ccc(C)cc2)s1

# Fetched by compound from the list above:
HPGD inh | compound
-7% | COCCOC(=O)c1c(C)oc2cc(Br)c(OCC(N)=O)cc12
-14% | Cc1ncc([N+](=O)[O-])n1CCOC(=O)c1ccccc1

# Some of the entries so far, with each value named:
Molecule: COCCn1nnnc1CN1CCC(C)CC1
- HPGD inh = -7%

Molecule: CC(/C=N/NC(=O)CN1CCN(Cc2ccc(Cl)cc2)CC1)=C\c1ccco1
- HPGD inh = -1%

Molecule: CC(C)c1ccc(-c2nnn(Cc3nc4ccccc4s3)n2)cc1
- HPGD inh = -16%

Molecule: COCCOC(=O)c1c(C)oc2cc(Br)c(OCC(N)=O)cc12
- HPGD inh = -7%

# Next compounds follow.
HPGD inh | compound
-9% | O=C(NCc1ccccn1)c1cc(-c2ccccc2)on1
5µM* | COc1ccc(-c2noc(CCC(=O)N3CCC(C)CC3)n2)cc1
2% | O=C(CSc1nc2ccccc2c(=O)n1CCCN1CCOCC1)Nc1cccc(S(=O)(=O)N2CCCCCC2)c1
? | Clc1ccc2oc(-c3ccccn3)nc2c1
-12% | CCN(CC)C(=O)CSc1nc(N)c(C#N)c(-c2cccs2)c1C#N
-4% | COCCNc1nc2c(c(=O)n(C)c(=O)n2C)n1Cc1cccc(C(F)(F)F)c1
-2% | OCc1nc2ccccc2n1CC(O)COc1ccccc1 (configuration not stated)
-7% | O=C(CSc1nnc(CNc2ccc(F)cc2)n1Cc1ccco1)N1CCCC1
-14% | CCCCCc1nnc(N)s1
-15% | CCC(c1nnnn1Cc1ccc2c(c1)OCO2)N1CCN(c2ccc(OC)cc2)CC1 (configuration not stated)
-8% | C[C@@H](C(=O)Nc1ccc2ccccc2c1)[C@@H]1C[C@@]1(C)[C@@H](NS(=O)(=O)c1ccccc1)c1ccccc1
-10% | Clc1ccc(CNC23CN4CN(CN(C4)C2)C3)c(Cl)c1
14µM* | CC(=O)c1c(COC(=O)c2ccccc2)nc2ccccc2[n+]1[O-]
2% | CN(C)Cc1cc(C(C)(C)c2cc(CN(C)C)c(O)c(CN(C)C)c2)cc(CN(C)C)c1O
-6% | CCN1C(=O)c2cccc3c(S(=O)(=O)NCc4ccco4)ccc1c23
? | c1coc(-c2nc3c([nH]2)CCc2nonc2-3)c1
-2% | CC(C)NC(=O)CN(C)S(=O)(=O)c1ccc(F)cc1
-3% | COc1ccc(/C=C/C(=O)NCCc2ccc(OC)c(OC)c2)cc1
-10% | FC(F)(F)c1cnc(Nc2ccc(N3CCOCC3)cc2)c(Cl)c1
-6% | Cn1c(C(=O)O)c(CC(=O)Nc2ccc(F)cc2F)c2ccccc21
-20% | Cc1cc(C)n2c(SCC(=O)Nc3ccccc3)nnc2n1
-13% | OCCNCCCCOc1cccc(Br)c1
-14% | COc1cccc(S(=O)(=O)N2CCN(c3ccccc3F)CC2)c1
-15% | C=CCc1ccc(OCC(O)CN2CCN(Cc3ccc(Cl)cc3)CC2)c(OC)c1 (configuration not stated)
1% | CCNC(=O)C1CC(=O)N(Cc2ccc3c(c2)OCO3)C(=Nc2ccc(F)cc2)S1 (configuration not stated)
? | CC1CCCCC1NC(=O)COC(=O)c1ccccc1NC(=O)c1ccco1 (configuration not stated)
28µM* | COc1cc(NS(=O)(=O)c2ccc(N/C=C(\C#N)c3nc4cc(Cl)ccc4o3)cc2)nc(OC)n1
-6% | COc1ccc(Cn2nc(C)n(N(C)c3ncc(C(F)(F)F)cc3Cl)c2=O)cc1
-13% | CCOC(=O)c1sc(NC(=O)Cn2nnc3sc4c(c3c2=O)CCCC4)nc1C
-24% | Cc1ccc(C(=O)c2sc(Nc3ccccc3)c(C#N)c2N)cc1
-11% | COc1cc(NS(=O)(=O)c2ccc(NC(=S)NC(=O)c3cccs3)cc2)nc(OC)n1
-18% | CCOC(=O)c1cnc2nc(COc3ccccc3)[nH]n2c1=O
-5% | COc1ccc(N2CCN(Cc3nc4scc(-c5ccccc5)c4c(=O)[nH]3)CC2)cc1
? | Cc1cc(C)c2nc(-c3ccccn3)cc(C(=O)NCc3ccco3)c2c1
-8% | COc1ccc(C2CCCN2C(=O)Nc2ccccc2)cc1OC (configuration not stated)
-10% | COc1ccc(OC)c(C2C3=C(CCCC3=O)NC3=C2C(=O)CCC3)c1
-1% | COC(=O)C1=C(C)NC(=O)NC1c1ccccc1 (configuration not stated)
-3% | O=C(Nc1ccccc1N1CCCCC1)c1ccco1
-17% | O=C1/C(=C/c2cccnc2)CCC/C1=C\c1cccnc1
-5% | Cc1ccc(C(=O)NNC(=O)CCCN2C(=O)/C(=C/c3ccccc3Cl)SC2=S)cc1
-23% | O=C(NCCN1CCCC1)c1ccc2c(=O)n(CCc3ccccc3)c(=O)[nH]c2c1
? | O=c1c2ccccc2nc2n1CCN2
-19% | Cc1ccc(OCC(=O)N2CCCCCC2)c(C)c1
-8% | CCC1=C(OC(=O)N(CC)CC)N2C(=O)OC(=NCC3CC3)[C@]2(Cc2ccccc2)[C@H]2C1=CC[C@H]1C(=O)N(C)C(=O)[C@H]12
-3% | Nc1ccccc1N
-12% | Cc1ccc(NC(=O)CSCC(=O)N2c3ccccc3CCc3ccccc32)cc1
-29% | CCOC(=O)C1=C(C)OC(N)=C(C#N)C1c1cc(C)sc1C (configuration not stated)
? | CCCc1cc(C(=O)Cc2ccc(C(=O)OCC)o2)c(O)cc1O
1% | O=C1NCCCC1C(=O)Nc1ccccn1 (configuration not stated)
-2% | CCNC(=S)NCc1ccc(F)cc1
? | COc1ccccc1-n1nc(C(=O)NCc2ccco2)c2ccccc2c1=O
-13% | Cc1c(C(=O)C(=O)N2CC=C(c3ccccc3)CC2)c2ccccc2n1C
-8% | Cc1cc(F)ccc1S(=O)(=O)N1CCCOC1CNC(=O)C(=O)NCCc1c[nH]c2ccccc12 (configuration not stated)
-2% | Cc1ccccc1NC(=S)N1CCN(Cc2ccccc2)CC1
-26% | N#Cc1c(NC(=O)C2CC(c3c(F)cccc3Cl)=NO2)sc2c1CCC2 (configuration not stated)
-10% | CCCS(=O)(=O)c1c(S(=O)(=O)CCC)c2c(N)cccn2c1C(=O)c1ccccc1
-2% | O=C1CCCc2c1nn(-c1ccccc1)[n+]2[O-]
-11% | CC(=O)NC(C)C(=O)OCc1ccc(Cl)cc1Cl (configuration not stated)
? | CCOC(=O)c1sc(NC(=O)/C=C/c2cnn(C)c2C)c(C(=O)OC(C)C)c1C
-6% | COc1ccc(N(CC(=O)Nc2ccccc2C(=O)N2CCOCC2)S(=O)(=O)c2ccc(F)cc2)cc1

# Next part:
HPGD inh | compound
-9% | CCOC(=O)c1ccc[n+](C(C)C(=O)c2ccc(-c3ccccc3)cc2)c1 (configuration not stated)
-11% | C=C(C)[C@H]1CC[C@]2(C(=O)O)CC[C@]3(C)[C@@H](CC[C@H]4[C@@]5(C)CC[C@@H](O)C(C)(C)[C@@H]5CC[C@@]43C)[C@H]12
? | CN(C)/C=C/c1c(C#N)c(=O)ncn1Cc1ccccc1
-4% | O=C(Nc1cccc(F)c1)N1CCC2(CC1)CCN(S(=O)(=O)c1ccccc1)CC2
? | COc1cc(OC)cc(-c2cc3nc(C4CCN(C(=O)OC(C)(C)C)CC4)cc(=O)n3[nH]2)c1
? | CCCCN(C(=O)c1ccco1)c1nnc(-c2cc(OC)c(OC)c(OC)c2)s1
